Bioassay records (PubChem)
Sa helicase inh = blocks Staphylococcus aureus DNA helicase; inhibition, %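 (tested at about 80 µM)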; AID 485395; purified S. aureus helicase, fluorescence unwinding assay; about half of the hits fall short of the stated cut; 0.05% of 120,000 active;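 active means both duplicates at 50% or more, or one of them with a favoured structure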;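 further: 0% = mean of negative control wells and 100% = mean of positive control wells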
MgrA DNA FP = S. aureus MgrA-DNA binding modulation. inhibition, %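 (about 10 µg/mL by stock and volumes)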. 0.13% of 84,000 active. fluorescence polarization;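 active means above 50% in either of two replicates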;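 further: 0% = protein plus DNA without compound and 100% = DNA alone without protein; higher means less MgrA bound to DNA so lower polarization; one replicate is shown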
Numbers without * were called inactive; . = no result given. A portion of the library. The share of hits here may be higher or lower than overall.

cpd	molecule	Sa helicase inh	MgrA DNA FP
1	N#C/C(=C\c1ccc(C(F)(F)F)cc1)c1cn(C(=O)C2CCC2)c2ccccc12	.	0.6
2	CSc1nc2ccccc2n1C(=O)CCN1C(=O)/C(=C/c2cccs2)SC1=S	-5	0.8
3	CC(=O)NC1C(OCCOc2ccc(Cl)cc2C)OC(CO)C(O)C1O (centres undefined)	5	0.9
4	CCS(=O)(=O)c1ccc2oc(NCCc3ccc(F)cc3)nc2c1	11	.
5	CCCCc1nnc(NC(=O)Cn2cnc3ccccc3c2=O)s1	3	-1.6
6	CCCc1ccc(C(=O)O)s1	2	-3.3
7	CN(C)S(=O)(=O)c1ccc(-c2ccccn2)s1	.	-3.0
8	Cc1cc(Nc2ccccc2)n(C(=O)c2ccc(N)cc2)n1	4	.
9	Clc1ccc2[nH]c(-c3ccccc3)cc2c1	.	3.1
10	O=C(COC(=O)C1CCCCC1)c1cccc2ccccc12	3	-1.7
11	CC(C)(C)c1ccc(C(=O)N2CCCCCC2=O)cc1	12	.
12	CCN(CC)C(=O)CSc1nc2c(cc1C#N)CCC2	23	.
13	Cc1nccnc1-c1ccn[nH]1	.	-2.0
14	CC1=N/C(=C2/C=C(c3ccc4c(c3)OCO4)Oc3ccccc32)C(=O)O1	16	.
15	CCN(c1ccccc1)C1(O)C(=O)c2ccccc2C1=O	4	-0.1
16	CNC(=O)CCC(=O)N1CC2CCCN2c2ccccc21 (centres undefined)	2	.
17	O=C(NCCCn1ccnc1)Nc1ccc(Cl)cc1	3	-0.8
18	O=C(CNCc1ccccn1)NCc1ccc(Cl)cc1	-22	.
19	COc1ccc(-c2ocnc2C(=O)NCC(C)c2ccccc2)cc1 (centres undefined)	5	.
20	COc1ccc(-c2[nH]ncc2CN(Cc2ccccc2)C(=O)/C=C/C(=O)O)cc1	-1	.
21	Cc1onc(-c2c(Cl)cccc2Cl)c1C(=O)Oc1ccc(Cl)c(Cl)c1	.	-1.5
22	CCOC(=O)c1c(C)n(-c2ccc(C)cc2)c2ccc(OCC(O)CNCC3CCCO3)cc12 (centres undefined)	3	-1.4
23	O=C1CCC(c2ccccc2)C(=O)C1C(=O)c1ccc(Cl)cc1Cl (centres undefined)	.	-1.5
24	O=C1CCCC(O)=C1C1c2ccccc2OC2CCCC(=O)C21 (centres undefined)	-4	1.6
25	O=C1CC(c2ccc(S(=O)(=O)N3CCCc4ccccc43)cc2)CN1 (centres undefined)	13	.
26	CC(C(=O)O)N1c2cccc3cccc(c23)S1(=O)=O (centres undefined)	13	2.5
27	CCOC(=O)C1CCCN(CC(=O)Nc2ccc(C(=O)Nc3ccccc3OC)cc2)C1 (centres undefined)	-1	.
28	CCCCn1c(CCNC(=O)C(C)(C)C)nc2ccccc21	-13	.
29	CCC(=O)c1cc(-c2nc3ccccc3n2C)n(C)c1	-18	2.0
30	Cc1ccccc1Nc1ncnc2c1cnn2-c1ccccc1	-2	.
31	Cn1cc(NC(=O)N(CCO)Cc2ccccc2)c2ccccc21	15	.
32	CN(C)/C=C1/C(=O)N(c2ccccc2)N=C1C(C)(C)C	7	.
33	Cn1ccnc1SCC(=O)Nc1ccc2ccccc2c1	-10	-0.3
34	O=C(O)c1ccc(C(=O)O)c(F)c1	.	-4.2
35	COC(=O)c1sccc1Oc1ccc(C(F)(F)F)cc1[N+](=O)[O-]	.	-1.7
36	O=C(O)CCCc1nc2ccccc2[nH]1	5	.

Whole records from above. Screens in order: Sa helicase inh	MgrA DNA FP
Profile of O=C(O)c1ccc(C(=O)O)c(F)c1 = .	-4.2
Profile of Cn1cc(NC(=O)N(CCO)Cc2ccccc2)c2ccccc21 = 15	.
Profile of COC(=O)c1sccc1Oc1ccc(C(F)(F)F)cc1[N+](=O)[O-] = .	-1.7
Profile of CCC(=O)c1cc(-c2nc3ccccc3n2C)n(C)c1 = -18	2.0
Profile of O=C1CC(c2ccc(S(=O)(=O)N3CCCc4ccccc43)cc2)CN1 (centres undefined) = 13	.

More entries.
cpd	molecule	Sa helicase inh	MgrA DNA FP
37	COC(=O)c1ccc2nc(-c3cccc(N)c3)cn2c1	.	0.2
38	CCN(CC)C(=O)CN1C=NS(=O)(=O)c2ccccc21	2	.
39	Clc1ccc(-c2noc(CCCSc3nnnn3-c3ccccc3)n2)cc1	2	.
40	CCOc1ccc(CCNC(=O)CN2C(=O)c3ccccc3C2=O)cc1OCC	10	.
41	CCSc1nnnn1-c1ccccc1	16	5.2
42	CCN(CCN(C)C)C(=O)c1cc2c(s1)-c1c(C)cccc1OC2	38	.
43	O=C(O)C1Cc2ccccc2CN1C(=O)CSc1nnc(-c2ccncc2)o1 (centres undefined)	11	.
44	O=C(c1ccccc1)c1ccsc1	-1	3.0
45	O=C(C1CCCO1)N1CCN(Cc2ccccc2F)CC1 (centres undefined)	7	-0.5
46	Nc1c2c(nc3cccc(F)c13)OCCC2	19	.
47	CC(C)(C)OC(=O)c1c(F)c(F)c(F)c(F)c1F	9	-0.7
48	Cc1ccc(C(c2nnnn2C2CCCC2)N(C)C2CCCCC2)cc1 (centres undefined)	12	-3.6
49	COC(=O)c1cn(-c2ccccc2)nc1C(=O)OC	11	-1.4
50	O=C(O)C1CCC(c2ccccc2)CC1 (centres undefined)	7	-4.5
51	Cc1ccc2c(c1)NC(=O)C(CC(=O)NCCN1CCN(c3cc(Cl)ccc3C)CC1)O2 (centres undefined)	-3	.
52	CC(NC(=O)NCC1CCCO1)(C(F)(F)F)C(F)(F)F (centres undefined)	6	0.6
53	CCOc1ccc(-c2nc(=S)[nH][nH]2)cc1	5	-0.9
54	COc1cc(C(C)=O)ccc1CN1CCOCC1	.	-0.5
55	C=CCc1ccc(OCC(O)CN2CCN(c3ccccc3)CC2)c(OC)c1 (centres undefined)	-3	.
56	COc1ccc2nc(C)cc(Oc3ccc4c(c3)OCO4)c2c1	-5	.
57	CCOC(=O)N1CCN(C2CCN(CC)CC2)CC1	0	-0.5
58	CCOc1ccc(S(=O)(=O)NCCC(=O)N=c2sc3ccccc3n2C)cc1	2	.
59	N#Cc1nc(Cc2ccccc2)oc1NCc1ccco1	-18	2.9
60	COc1ccc(C2C3=C(CC(c4ccco4)CC3=O)Nc3ccccc3N2C(=O)C(F)(F)F)cc1OC (centres undefined)	.	2.6
61	CCOc1cccc(C(=O)Nc2ccc(Cl)cn2)c1	8	-1.7
62	CC(=O)N1CCC(C(=O)NCc2ccc(-c3cccs3)cc2)CC1	.	2.4
63	COc1cc2ccc(=O)oc2cc1OC	.	-0.5
64	CCOC(=O)C1C(=O)CC(=O)C(C(=O)OCC)C1c1ccc(OC)cc1 (centres undefined)	9	-3.2
65	COc1ccc(-c2nnn(CC(=O)Nc3sc4c(c3C#N)CCCC4)n2)cc1	5	-0.9
66	C=CCC1C=C(C=C)CC(CC=C)N1 (centres undefined)	7	-2.1
67	CCN(C(=O)c1ccc(-n2cnnn2)cc1)C12CC3CC(CC(C3)C1)C2	6	.
68	CC(NC(=O)c1ccc(Cl)cc1Cl)C(=O)NCc1ccco1 (centres undefined)	.	-2.7
69	Nc1cc(C(F)(F)F)ccc1N1CCCC1	.	-0.9
70	COc1ccc(S(=O)(=O)CC(C)(O)CS(=O)(=O)c2ccc(OC)cc2)cc1	.	-1.8
71	N#CC1(NC(=O)COC(=O)c2nccnc2N)CCCCC1	-6	.
72	NC(=O)CN1CCN(c2ccccn2)CC1	11	0.1
73	CCCCN(C)C(=O)Cn1cc2c(n1)CCCCC2	6	-2.3
74	Cc1cc(N)n(C)c(=O)c1	-116	.
75	O=S(=O)(CC1CC1(Cl)Cl)c1ccccc1 (centres undefined)	.	-2.2
76	CCn1cnc2c1c(=O)n(CC(=O)O)c(=O)n2Cc1ccccc1	-13	.
77	O=C(CN1CCN(C(=O)c2ccccc2)CC1)NCC(F)(F)F	8	.
78	Cc1ccc(Nc2cc(C)nc(-c3ccccc3O)n2)cc1	19	.
79	CSC1(N2CCc3ccccc3C2)NN=C(C)C(=O)N1 (centres undefined)	-5	-1.0
80	O=C(COc1ncnc2sccc12)NCc1ccccc1	2	.
81	CC(=O)Nc1ccc(Br)c(C)c1	.	-0.1
82	CC(C)c1cc(C(=O)O)nc2ncnn12	0	-3.5
83	c1ccc(Nc2ncnc3cc(-c4ccccc4)sc23)cc1	.	3.7
84	CC1CCCCN1S(=O)(=O)c1ccc(C(=O)Nc2ccc3c(c2)C(=O)NC3=O)cc1 (centres undefined)	1	.
85	O=C1NN=C2C3CC(CC12)C1=NNC(=O)C1C3 (centres undefined)	-5	4.1
86	Cc1cc(=O)n2[nH]cc(C(=O)O)c2n1	-6	.
87	CC1(C)C2CC=C(/C=N/NC(=O)c3ccc(O)cc3)C1C2 (centres undefined)	3	.
88	CN(C)c1ccc(C(=O)NCc2ccc(S(N)(=O)=O)cc2)cc1	-39	.
89	NS(=O)(=O)c1ccc(-c2ccc(C3Nc4ccccc4-c4nc5ccccc5n43)o2)cc1 (centres undefined)	20	.
90	CN(C)c1ccc(-c2nc(-c3cccc(I)c3)cc(=O)o2)cc1	-95	22
91	CCOc1ccc(N=C(N)N=C(N)N)cc1	7	4.9
92	Cc1ccc(SC(=O)c2cc(C)on2)cc1	.	-0.8
93	CC(C)c1ccc(OCCCN2CCCC2)cc1	5	0.5
94	Clc1nc2sccn2c1C=Nc1ccccc1	.	-0.6
95	COC(=O)C1CCN(C(=O)CSc2nnc3n(-c4c(C)cccc4C)c(=O)c4ccccc4n23)CC1	15	.
96	S=C1SCN(Cc2ccccc2)CN1Cc1ccccc1	.	-1.0

Later entries:
cpd	molecule	Sa helicase inh	MgrA DNA FP
97	CNC(=O)COC(=O)c1ccccc1C(=O)c1ccccc1	-15	.
98	Cc1ccc(C(O)C(=O)c2ccccc2)o1 (centres undefined)	8	-1.0
99	CC(C)OC(=O)c1cc2c(ccn2C)n1CC(=O)N(Cc1ccccc1)c1ccccc1	5	-1.4
100	O=C(NC(=S)Nc1nncs1)c1ccccc1	5	.
101	Cn1ccsc1=NC(=O)/C=C/c1ccc(S(=O)(=O)N2CCCCCC2)cc1	33	.
102	COc1cccc(N=Cc2ccc(O)cc2)c1	16	-2.0
103	CCC(CO)NC(=O)c1ccc(N)cc1 (centres undefined)	14	5.9
104	CC(=O)Nc1sc(Cc2ccc3c(c2)OCO3)c(C)c1C(N)=O	-6	.
105	CC1(C)CC(=O)C2=C(C1)Nc1[nH]c(=O)[nH]c(=O)c1C2c1cccs1 (centres undefined)	3	.
106	CCN(C(=O)CC(C)C)c1nnc(-c2ccccc2C)s1	-3	1.1
107	Cc1nn(C(=O)c2ccccc2)cc1-c1nsc(Nc2ccccc2)n1	.	-1.0
108	COc1ccc(-n2nc3c(c2NC(=O)c2ccco2)CSC3)cc1	5	.
109	CS(=O)(=O)Nc1cccc(C(=O)O)c1	-9	.
110	CCn1c2ccccc2c2cc(/C=C(\C#N)S(=O)(=O)c3ccccc3)ccc21	-11	19
111	CC(=O)Nc1c(Cl)n(C(C)=O)c2ccccc12	11	1.2
112	O=C(O)Sc1nnc(CCCO)n1-c1ccccc1	11	-9.2
113	Cc1oc2c(c1C(=O)NCc1ccccn1)C(=O)c1ccccc1C2=O	4	.
114	O=c1[nH]c(=O)n(-c2ccccc2)[nH]1	-4	.
115	FC(F)(F)c1ccc(CSc2ncnc3c2oc2ccccc23)cc1	1	.
116	N#Cc1cnn(-c2ccccc2)c1C(F)(F)F	.	0.8
117	Cc1nc(-c2ccc(NS(C)(=O)=O)cc2)cs1	-10	.
118	Cc1nc(C)c(C(=O)NCCc2nc3ccccc3[nH]2)s1	8	.
119	Cc1ccc(-c2nc(C#N)c(NC3CC3)o2)cc1	-10	0.4
120	CCC(Sc1nc2c(c(=O)[nH]1)CCC2)C(=O)NC1CCCCC1 (centres undefined)	10	.

Reprinted from the part before: two compounds; new compounds follow.
cpd	molecule	Sa helicase inh	MgrA DNA FP
119	Cc1ccc(-c2nc(C#N)c(NC3CC3)o2)cc1	-10	0.4
120	CCC(Sc1nc2c(c(=O)[nH]1)CCC2)C(=O)NC1CCCCC1 (centres undefined)	10	.
121	CCNS(=O)(=O)c1ccc(OC)c(C(C)(C)C)c1	-18	-7.5
122	CNC(=O)c1cccc(S(=O)(=O)N(C)C)c1	12	-8.5
123	COc1cc(C#N)ccc1OC(=O)C(CCSC)N1C(=O)c2ccccc2C1=O (centres undefined)	5	.
124	CC(C)N(CC(=O)N1c2ccccc2CC1C)Cc1ccccc1 (centres undefined)	-11	.
125	Cc1ccc(-n2c(SCc3cccc(C(F)(F)F)c3)nnc2-c2ccncc2)cc1	-3	0.0
126	Cc1cccc(Nc2nnc(SCC#N)s2)c1	5	.
127	CC(=O)N1CCc2c(sc(NC(=O)/C=C/c3ccccc3)c2C(N)=O)C1	-9	.
128	CCN(CC)Cc1c(O)ccc2c(=O)c(-c3ccccc3OC)coc12	-22	.
129	COC(=O)c1scc(S(=O)(=O)Cc2ccco2)c1NN=C(C#N)C#N	7	.
130	CCCC1=C(C(=O)OCC)C(c2ccccc2Cl)C(C#N)=C(SC)N1 (centres undefined)	9	-0.7
131	O=CN1CCN(C(=O)CC(c2ccccc2)c2cc(Br)ccc2O)CC1 (centres undefined)	13	-2.6
132	Cn1c(=O)c2c(-c3ccc(Cl)cc3)n(CC3CCCO3)cc2n(C)c1=O (centres undefined)	30	.
133	CN(CC(=O)NCc1cccs1)S(=O)(=O)c1ccc2c(c1)n(C)c(=O)c(=O)n2C	7	.
134	COC(=O)c1ncn2c1C(=O)OC(COc1ccccc1)C2 (centres undefined)	3	.
135	O=C(N/N=C/c1ccc(Cl)cc1)c1csc(CS(=O)(=O)Cc2ccco2)n1	9	.
136	Cc1ccc(NC(=O)COC(=O)c2cncc(Br)c2)c(C)c1	-7	-0.3
